# Source: PubChem
# MgrA-DNA mod = alters Staphylococcus aureus MgrA binding to DNA; fluorescence polarization; inhibition, %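 (about 10 µg/mL by stock and volumes)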; actives 0.13% (n = 84,000); AID 602314;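 active = above 50% in either of two replicates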;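 note: 0% = protein plus DNA without compound and 100% = DNA alone without protein; higher means less MgrA bound to DNA so lower polarization; one replicate is shown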
# Sa helicase inh = blocks Staphylococcus aureus DNA helicase. purified S. aureus helicase, fluorescence unwinding assay; about half of the hits fall short of the stated cut. inhibition, %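 (tested at about 80 µM)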. actives 0.05% (n = 120,000);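 active = both duplicates at 50% or more, or one of them with a favoured structure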;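 note: 0% = mean of negative control wells and 100% = mean of positive control wells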
# An asterisk follows results filed as active; . = no result given. Some of the compounds tested. The share of hits here may be higher or lower than overall.
SMILES,MgrA-DNA mod,Sa helicase inh
COC(=O)c1ccc(/C=C(\C#N)C(N)=S)cc1,0.4,3.0
CNc1nc(CC(C)=O)ns1,-2.7,.
CC(C)C(NC(=O)CCc1ccccc1)C(C)C,1.1,13.0
Cc1ccc(C)c(Cn2c(C)nc3c(sc(=S)n3-c3ccccc3)c2=O)c1,3.0,14.0
CCC(=O)NCCc1nc2ccccc2n1C,.,-16.0
CCOC(=O)c1noc2c1C1=NCCN1C=N2,.,-30.0
O=C(NC1CCCc2ccccc21)C1COc2ccccc2O1 (stereo unspecified),.,13.0
CC1CC1c1ccc(CCC(=O)O)o1 (stereo unspecified),.,-7.0
Cc1ccccc1-c1nnn(-c2nc(CN3CCOCC3)nc3sc4c(c23)CCCC4)n1,.,4.0
Cc1nc2ccc(N=NC3=C(O)CC(C)(C)CC3=O)cc2s1,.,14.0

# Another view of some results above.
CCC(=O)NCCc1nc2ccccc2n1C
  MgrA-DNA mod: .
  Sa helicase inh: -16.0
Cc1nc2ccc(N=NC3=C(O)CC(C)(C)CC3=O)cc2s1
  MgrA-DNA mod: .
  Sa helicase inh: 14.0

# Next section.
SMILES,MgrA-DNA mod,Sa helicase inh
Clc1ccc2ncnc(-c3ccccc3)c2c1,1.2,10.0
COC(=O)[C@H](c1ccccc1Cl)N1CCc2sccc2C1,2.5,.
Cc1sc(=[N+]2CCCCC2)sc1SCCC(=O)O,-2.4,7.0
Cc1cnn(C(=O)c2cc3ccccc3oc2=O)c1,-8.3,14.0
O=C(O)Cc1ccc(S(=O)(=O)N2CCCC2)s1,.,12.0
CC1CCCN(C(=O)c2ccc3ncsc3c2)C1 (stereo unspecified),.,-9.0
O=C(NC(CO)C(=O)O)c1ccccc1 (stereo unspecified),1.5,.
COc1ccc(-c2noc(-c3ccc(OC)cc3)n2)cc1,1.7,8.0
CC(NC(=O)CSc1cccc[n+]1[O-])c1ccccc1 (stereo unspecified),-4.3,4.0
O=C(NCc1cccc(Cl)c1)c1nc2c(nnn2Cc2ccccc2)c(=O)[nH]1,1.1,18.0
COc1cc(S(=O)(=O)N2CCOCC2)cc(C(=O)c2nccn2C)c1OC,.,4.0
CC(NC(=O)c1ccc(=O)n(C)n1)C1CC2CCC1C2 (stereo unspecified),.,-8.0
CCc1nnc(NC(=O)CN2C(=O)CC(C)(C)Sc3ccccc32)s1,.,12.0
O=C(NCCc1ccccc1)c1cc2ccccc2oc1=O,-1.0,3.0
CCCCC/C=C/C=C1/C(=O)C=C[C@@H]1C/C=C\CCCC(=O)O,0.8,.
Nc1c(N2CCOCC2)ccc2nsnc12,.,-14.0
O=C(N=C1c2ccccc2CN1c1ncccn1)c1cccc(F)c1,-1.2,-20.0
NC(=O)c1ccccc1C(=O)c1ccccc1,3.2,-2.0
Fc1ccc(-n2cccc2)c(F)c1,-1.7,.
CCOC(=O)c1cnc2c(C)cc(C)cc2c1Nc1ccc(S(=O)(=O)Nc2ncccn2)cc1,0.6,5.0
Cc1nc2c(C)cccn2c1C(=O)Nc1ccc(F)cc1F,0.5,.
COc1ccc(Nc2nc(N)nc(CSC(=S)N(C)C3CCCCC3)n2)cc1,1.5,-12.0
C=C(C)Cn1c(SCC(=O)NN)nc2ccccc2c1=O,0.2,-4.0
CCOC(=O)Nc1ccc(Cl)cc1,.,37.0
CC(C)CCNc1ccc(-c2ccc(Cl)cc2)nn1,-0.1,0.0
O=C(Nc1ccc(C(F)(F)F)cn1)c1cccnc1Oc1ccc(Cl)cc1,-1.3,.
c1ccc(CN2CCN(Cc3ccccc3)C2c2ccco2)cc1,1.6,-1.0
Cc1cc(C)nc(SCCSc2nc(C)cc(C)n2)n1,1.6,-6.0
C/C(=N\O)C(C)(C)Nc1ccc(Br)cc1,.,-5.0
CCc1ccc(C(=O)CSc2ccccc2C(=O)O)cc1,.,5.0
Cc1nn2c3ccccc3n(C)c2c1C(=S)Nc1ccccc1,0.7,-12.0
CCCN(CCC)C(=S)Nc1ccccc1,-0.7,12.0
CS(=O)(=O)N(Cc1ccccc1)c1ccccc1C(=O)NC1CCCC1,1.2,-16.0
CC1CCCCN1C(=S)NC(=O)c1ccco1 (stereo unspecified),.,-9.0
CC1CN(c2ccccc2)c2nc3c(c(=O)n(C)c(=O)n3C)n2C1 (stereo unspecified),.,-6.0
COc1cc(C(=O)NCCC(=O)NC2CCCc3ccccc32)cc(OC)c1OC (stereo unspecified),4.8,9.0
O=C(Cn1c(=O)c2sccc2n(CC(=O)Nc2ccccc2)c1=O)NCc1ccco1,.,-17.0
O=C(NCc1cccnc1)c1cc2ccccc2oc1=O,0.1,-7.0
O=C1NCC2=C1C(c1ccccc1O)Nc1ccccc1N2 (stereo unspecified),-1.9,2.0
O=S1(=O)CCC(N2CCN(c3ncnc4sccc34)CC2)C1 (stereo unspecified),.,-5.0
Cc1onc(-c2c(Cl)cccc2Cl)c1C(=O)Nc1ccc([N+](=O)[O-])cc1Cl,-1.9,.
O=C(CCSc1ccc2ccccc2n1)NCCc1ccccc1,0.7,3.0
COc1ccccc1C(=O)N(CC(=O)Nc1ccccc1C(F)(F)F)Cc1ccco1,.,-2.0
CC(=O)Nc1ccc(C)cc1N=Cc1ccc2c(c1)OCO2,-0.3,.
O=[N+]([O-])c1cc(C(F)(F)F)cc2c1nc1ccccn12,-1.7,.
CCCC(=O)O[C@]1(C(=O)CO)CCC2[C@@H]3CCC4=CC(=O)CC[C@]4(C)C3[C@@H](O)C[C@@]21C (stereo partly specified),0.3,.
COc1cccc(/C(O)=C2\C(=O)C(=O)N(CCN(C)C)C2c2ccc(C(C)C)cc2)c1 (stereo unspecified),.,9.0
O=C(CN1CCCc2ccccc21)NCCc1ccc(F)cc1,.,0.0
O=C(CN1C(=O)C2CC=CCC2C1=O)N1CCN(S(=O)(=O)c2ccc3c(c2)OCCCO3)CC1 (stereo unspecified),.,19.0
CCc1ccc(NC(=O)c2ccc(NC(=O)CCS(=O)(=O)c3cccs3)cc2)cc1,0.4,15.0

# Next section.
SMILES,MgrA-DNA mod,Sa helicase inh
CCCCNC(=O)NCCNc1ccc(C(F)(F)F)cn1,1.2,.
CCNC(=O)c1ccc2nc(N3CCCCC3)sc2c1,-2.0,5.0
C(=N\Nc1ccc(N2CCOCC2)nn1)/C1=C(N2CCOCC2)C(=C/c2ccccc2)/CC1,.,17.0
O=C1c2ccccc2C(=O)N1Nc1ccccc1,-2.1,.
O=c1[nH]c2ccccc2c(=O)n1NC(=S)NCc1ccco1,.,3.0
O=C(OCc1sccc1Oc1ccccc1)c1ccc(Cl)cc1,-2.5,.
CCc1ccc(NC(=O)N(Cc2ccco2)C(C)c2cccs2)cc1 (stereo unspecified),-0.6,-7.0
COc1cc(/C=N/NC(N)=O)ccc1OC(=O)c1cccs1,.,-11.0
O=C(NN1C(=O)/C(=C/c2ccc(Br)cc2)SC1=S)c1ccccc1[N+](=O)[O-],0.3,.
COc1cc(C(=O)Nc2sccc2C#N)cc(OC)c1OC,.,-7.0
Cc1ccc(-c2nc(C#N)c(NCc3ccco3)o2)cc1,.,5.0
O=C1c2ccccc2NC(c2cccc(O)c2)N1O (stereo unspecified),1.4,5.0
CCCCN=C1NN=C(c2cc3ccccc3o2)CS1,.,-12.0
Clc1ccc2oc(-c3ccccc3)cc(=NCC3CCCO3)c2c1 (stereo unspecified),1.8,25.0
Cc1n[nH]c(=S)n1Cc1ccccc1,.,-12.0
CS(=O)(=O)c1ccccc1C(=O)Nc1cc(Cl)ccc1-n1cncn1,.,-4.0
c1cn2cc(CSC3CCCCC3)nc2s1,1.1,-20.0
O=C(O)CCc1ccc(OCc2ccccc2)cc1,-1.1,.
N#CCCN(C(=S)Nc1ccc(Cl)c(Cl)c1)C1CCCCC1,3.2,.
O=c1cc(CSc2nnc(-c3cccnc3)o2)c2cc3c(cc2o1)CCC3,.,-13.0
COC(=O)c1cc2occc2n1CC(=O)Nc1ccc(F)cc1F,.,-1.0
C/C(=C/c1ccccc1)C(=O)Nc1ccc(S(N)(=O)=O)cc1,0.4,10.0
N#Cc1c(N2CCCC2)nsc1-c1ccccc1,0.4,.
N#C/C(=C\c1cn(Cc2ccccc2)c2ccccc12)C(=O)NC1CC1,1.6,8.0
O=C(CCSCc1ccccc1Cl)NCc1ccccc1Cl,0.6,9.0
COc1ccc(-c2cc(C)no2)cc1S(=O)(=O)N1c2ccccc2CC1C (stereo unspecified),.,15.0
CCOC(=O)c1sc(N)c(C#N)c1CSc1nnc(C2CC2)n1N,.,-20.0
COc1ccc(C(=O)NCCc2nc3ccccc3n2C)cc1OC,.,-8.0
CCc1nnsc1C(=O)Nc1ccc(S(N)(=O)=O)cc1,.,7.0
CCNC(=S)N1CCN(CCN=CC2=C(O)CC(C)(C)CC2=O)CC1,0.5,7.0
COc1ccc2c(c1)CCC1C2CCC2(C)C(=O)CCC12 (stereo unspecified),0.4,.
CCOc1ccc2cc(-c3nnc(-c4cccc(OC)c4)o3)c(=O)oc2c1,-2.2,.
O=C(Nc1ccccc1)NC1(C(=O)N2CCN(C(=O)c3ccco3)CC2)CCCCC1,-1.6,-1.0
OCc1ccccc1N=Cc1cccnc1,-2.5,-12.0
O=C(c1cc(-c2ccccc2)on1)N1CCN(c2ccccc2)CC1,2.5,8.0
CCOC(=O)Cn1c(-c2ccccn2)nc2ccccc21,0.5,3.0
Cc1cc(OCC(O)CN2CCN(Cc3ccc4c(c3)OCO4)CC2)cc(C)c1Cl (stereo unspecified),.,-1.0
COc1ccc(-c2nc(SCC(=O)c3ccc(Cl)cc3)n[nH]2)cc1,.,9.0
O=C(OCC1CC(c2ccccn2)=NO1)c1ccc(Br)cc1 (stereo unspecified),.,8.0
CC1CN(c2ccc(N)cc2C(=O)O)CC(C)O1 (stereo unspecified),-1.8,.
N#Cc1ccc(S(=O)(=O)Nc2ccccc2Sc2nc3ccc(Cl)cc3s2)cc1,2.9,.
CCN(CC)S(=O)(=O)N1CCCC(C(=O)NCc2ccc(C)cc2)C1 (stereo unspecified),-0.2,12.0
Cc1ccc(C(=O)OCC2COc3ccccc3O2)cc1 (stereo unspecified),-0.1,-15.0
COc1cc(-c2nc3c(cnn3-c3ccccc3)c(=O)[nH]2)cc(OC)c1OC,.,2.0
O=C(CSc1nnc(Cc2cc(=O)[nH]c(=O)[nH]2)n1-c1ccccc1)Nc1ccc2c(c1)OCO2,.,12.0
CC1CCCCN1CCCNC(=O)Cc1ccc(NC2=NC3CS(=O)(=O)CC3S2)cc1 (stereo unspecified),.,21.0
CC1(C)CC(NC(=S)NC(=O)c2ccco2)CC(C)(C)N1,.,-7.0
CNc1c(=O)[nH]c(O)c2ccccc12,0.2,-1.0
CCC(C)(C)NC(=O)/C=C/c1ccc(OC(F)F)c(OC)c1,.,-6.0
CC(Cc1c[nH]c2ccccc12)NC=O (stereo unspecified),5.8,4.0

# Entries from the list above with a nitro group on carbon (three):
SMILES,MgrA-DNA mod,Sa helicase inh
Cc1onc(-c2c(Cl)cccc2Cl)c1C(=O)Nc1ccc([N+](=O)[O-])cc1Cl,-1.9,.
O=[N+]([O-])c1cc(C(F)(F)F)cc2c1nc1ccccn12,-1.7,.
O=C(NN1C(=O)/C(=C/c2ccc(Br)cc2)SC1=S)c1ccccc1[N+](=O)[O-],0.3,.

# Next section
SMILES,MgrA-DNA mod,Sa helicase inh
COC(=O)c1ccc(C(=O)Nc2cc(C)on2)cc1,.,10.0
Cc1ccc(CNC(=O)CCC(=O)O)cc1,.,24.0
CCOC(=O)c1c(C#N)c(SC)nc2c1CCCC2,0.2,0.0
Cc1ccc(Nc2nc3nonc3n3cnnc23)cc1Cl,1.9,-1.0
CC(C)CC(O)(CC(C)C)C(=O)NNc1ccccc1,-0.8,7.0
O=C1N=c2ccccc2=C1c1c(O)n(-c2cccc(Br)c2)[nH]c1=O,21.0,4.0
CC(=NCc1ccncc1)C1=C(O)c2ccccc2C1=O,.,-19.0
O=c1c(Cl)c(Cl)cnn1-c1nc2ccccc2o1,.,10.0
Cc1ccc(N2C(=O)C(C)N=C2N(C)C2CCCCC2)cc1 (stereo unspecified),.,0.0
Cc1occc1C(=O)C(C#N)=C1SCCCS1,.,14.0
CC(C)N(CCC#N)C(=O)Nc1ccc(C(C)(C)C)cc1,.,4.0
CC1Cc2ccccc2N1C(=O)NC1CC(=O)N(c2ccccc2)C1 (stereo unspecified),.,2.0
CCOC(=O)C1=C(NC(C)C)C(=O)N(N(C)C)C1,0.5,0.0
O/N=C/c1ccc(-c2cc(C(F)(F)F)cc(C(F)(F)F)c2)o1,4.9,.
CS/C(N)=N/N=C(\C)c1ccc(Br)cc1,.,20.0
Cc1ccc(/C=C/C(=O)N(C2=NC(C)CS2)c2ccc(Cl)cc2)o1 (stereo unspecified),.,17.0
Cc1ccc(CNC(=O)CN2NS(=O)(=O)c3ccccc3C2=O)cc1,.,-8.0
COc1ccc(-c2noc(CSc3nnc(CCc4ccccc4)n3C)n2)cc1OC,-0.6,2.0
CN(C)N=Nc1ccc(-c2cn(Cc3ccccc3)cn2)cc1,1.7,-5.0
CC(C)Cn1c(-c2ccc(F)cc2)n[nH]c1=S,.,14.0

# Sorted by SMILES length (low to high): 3 of the compounds above.
SMILES,MgrA-DNA mod,Sa helicase inh
c1cn2cc(CSC3CCCCC3)nc2s1,1.1,-20.0
Cc1nn2c3ccccc3n(C)c2c1C(=S)Nc1ccccc1,0.7,-12.0
O=C(OCC1CC(c2ccccn2)=NO1)c1ccc(Br)cc1 (stereo unspecified),.,8.0

# Next structures follow.
SMILES,MgrA-DNA mod,Sa helicase inh
CCS(=O)(=O)Nc1cc(F)ccc1C,-2.2,7.0
COc1ccc(N2CCN(C(=O)c3cccc4ccccc34)CC2)cc1,0.1,16.0
CSCCC(=O)Nc1ccc(-c2ccccc2)cc1,.,2.0
CCc1ccc(NC(=O)/C=C/c2ccco2)cc1,.,-3.0
CC1(NC(=O)CN2CCCCC2c2nc3ccccc3s2)CCS(=O)(=O)C1 (stereo unspecified),.,12.0
Cc1c(C(=O)Nc2ccc(S(N)(=O)=O)cc2)oc2ccccc12,.,3.0
Cn1c(=O)n(CCOc2ccccc2)c2ccccc21,0.7,0.0
